FGF22 binding: FGF22 (human) thermal shift binding. recombinant FGF22 thermal shift, SYPRO orange fluorescence; percent of sucrose octasulfate shift, DMSO zero. Q9HCT0. hit rate 1.5% among 340,000. calls only at 9.99 µM;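 active means melting point raised past a set limit in the mean and every replicate; three in four hits are not shown here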
Target sequence (Q9HCT0 whole entry, looked up): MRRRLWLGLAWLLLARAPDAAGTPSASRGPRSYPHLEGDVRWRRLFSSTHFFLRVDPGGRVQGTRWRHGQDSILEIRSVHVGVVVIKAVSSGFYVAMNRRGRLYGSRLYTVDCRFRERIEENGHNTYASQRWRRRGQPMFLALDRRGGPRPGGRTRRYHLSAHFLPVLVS
Calls only; i = inactive. Only part of the results is shown; count on the stated rates, not on these rows.

SMILES | FGF22 binding
CO[C@H]1CN(C)C(=O)c2cc(NC(=O)C3CCCCC3)ccc2OC[C@H](C)N(Cc2nccs2)C[C@H]1C | i
Cc1cccc(S(=O)(=O)N2C[C@@H](O)COC[C@@H]3O[C@@H](CC(=O)NCc4ccc5c(c4)OCO5)CC[C@H]32)c1 | i
C[C@@H]1CN([C@@H](C)CO)C(=O)Cc2cc(NC(=O)C3CC3)ccc2O[C@@H]1CN(C)S(=O)(=O)c1cn(C)cn1 | i
CCNC(=O)[C@H]1[C@H](CO)[C@H]2Cn3c(ccc(-c4cncnc4)c3=O)[C@H]2N1C(=O)NC1CCCC1 | i
Cc1noc(C)c1NC(=O)N(C)C[C@@H]1OCc2ccccc2-c2ccccc2C(=O)N([C@H](C)CO)C[C@H]1C | i
C[C@H]1CN([C@@H](C)CO)C(=O)c2cc(NC(=O)Nc3ccccc3)ccc2O[C@@H]1CN(C)C(=O)NC1CCCCC1 | i
CC(C)C#Cc1ccc2c(c1)O[C@@H](CN(C)C(=O)c1ccccn1)[C@@H](C)CN([C@H](C)CO)S2(=O)=O | i
O=C(NCC[C@@H]1CC[C@H](NS(=O)(=O)c2cccc(F)c2)[C@@H](CO)O1)C1CCOCC1 | i
C[C@@H](NC(=O)C[C@H]1C=C[C@@H](NC(=O)c2cccnc2)[C@H](CO)O1)c1ccccc1 | i
Cc1noc(C)c1NC(=O)N(C)C[C@H]1Oc2c(NC(=O)Nc3ccc4c(c3)OCO4)cccc2C(=O)N([C@@H](C)CO)C[C@H]1C | i
Cc1ccc(S(=O)(=O)Nc2ccc3c(c2)C(=O)N([C@H](C)CO)C[C@@H](C)[C@@H](CN(C)C(=O)Nc2ccc(F)cc2)O3)cc1 | i
CC(C)C#Cc1cnc2c(c1)C(=O)N([C@@H](C)CO)C[C@@H](C)[C@@H](CN(C)C(=O)Nc1ccc(F)cc1)O2 | i
COc1cccc(CNC(=O)[C@H]2CCCN2C(=O)[C@H]2CCCN2C(=O)N2CCOCC2)c1 | i
COCC(=O)N(C)C[C@H]1Oc2cc(-c3cncnc3)ccc2S(=O)(=O)N([C@H](C)CO)C[C@@H]1C | i
C[C@@H]1CCCCO[C@H](CN(C)C(=O)CCC(F)(F)F)[C@@H](C)CN([C@@H](C)CO)C(=O)c2cc(NC(=O)Cc3ccccc3)ccc2O1 | i

3 of the compounds above, with the structure last.
| FGF22 binding | compound |
| --- | --- |
| i | CC(C)C#Cc1cnc2c(c1)C(=O)N([C@@H](C)CO)C[C@@H](C)[C@@H](CN(C)C(=O)Nc1ccc(F)cc1)O2 |
| i | COc1cccc(CNC(=O)[C@H]2CCCN2C(=O)[C@H]2CCCN2C(=O)N2CCOCC2)c1 |
| i | COCC(=O)N(C)C[C@H]1Oc2cc(-c3cncnc3)ccc2S(=O)(=O)N([C@H](C)CO)C[C@@H]1C |

Next compounds follow:
SMILES | FGF22 binding
CN(C)C(=O)C[C@H]1C[C@@H]2c3cc(N(C)C)ccc3O[C@@H]2[C@@H](CO)O1 | i
O=S(=O)(Cc1ccccc1)NCC[C@H]1CC[C@H](NS(=O)(=O)c2ccccc2)[C@H](CO)O1 | i
C/C=C/c1cnc2c(c1)C(=O)N([C@H](C)CO)C[C@H](C)[C@H](CN(C)C(=O)Nc1ccc(C(F)(F)F)cc1)O2 | i
C[C@H](CO)N1C[C@H](C)[C@@H](CN(C)C(=O)Nc2cccc3ccccc23)Oc2c(NC(=O)c3nc4ccccc4s3)cccc2C1=O | i
C[C@H](CO)N1C[C@H](C)[C@H](CN(C)Cc2ccccc2F)Oc2ncc(/C=C/c3ccccc3)cc2C1=O | i
CCCC#Cc1cnc2c(c1)C(=O)N([C@H](C)CO)C[C@H](C)[C@H](CN(C)C(=O)Cc1ccccc1)O2 | i
C[C@H](CO)N1C[C@H](C)[C@H](CN(C)C(=O)c2ccncc2)Oc2ncc(C#CC3CCCCC3)cc2C1=O | i
O=C(c1cccnc1)N1CC[C@@H]2[C@@H](CO)Nc3ccc(-c4cccc(F)c4)cc3[C@@H]21 | i
COCC(=O)N(C)C[C@H]1Oc2cc(-c3cccc(F)c3)ccc2S(=O)(=O)N([C@@H](C)CO)C[C@H]1C | i
CN(C)C(=O)c1ccc(-c2ccc([C@@H]3[C@H](C#N)N(C(=O)C4CCCC4)[C@H]3CO)cc2)cc1 | i
C[C@H](CO)N1C[C@H](C)[C@H](CN(C)S(=O)(=O)c2ccc(F)cc2)Oc2ccc(NC(=O)Cn3cnnn3)cc2CC1=O | i
Cc1ccc(S(=O)(=O)Nc2ccc3c(c2)CC(=O)N([C@H](C)CO)C[C@H](C)[C@@H](CN(C)C(=O)Nc2ccc(C(F)(F)F)cc2)O3)cc1 | i
C[C@@H]1CCCCO[C@@H](CN(C)CC2CC2)[C@H](C)CN([C@@H](C)CO)C(=O)c2cc(NC(=O)CCC(F)(F)F)ccc2O1 | i
COCC(=O)Nc1ccc2c(c1)[C@@H]1C[C@@H](CC(=O)NC3CCCCC3)O[C@H](CO)[C@@H]1O2 | i
C[C@H](CO)N1C[C@H](C)[C@H](CN(C)S(=O)(=O)c2ccc(F)cc2)Oc2c(NC(=O)NC3CCCCC3)cccc2C1=O | i
COc1ccc(S(=O)(=O)N(C)C[C@@H]2Oc3ccc(NC(=O)Cn4cnnn4)cc3CC(=O)N([C@H](C)CO)C[C@@H]2C)cc1 | i
CC(=O)N(C)C[C@H]1Oc2ncc(C#CC3(O)CCCC3)cc2C(=O)N([C@@H](C)CO)C[C@@H]1C | i
O=C(Nc1ccccc1)[C@@H]1[C@@H](CO)[C@@H]2Cn3c(ccc(C4=CCCCC4)c3=O)[C@@H]2N1Cc1ccccn1 | i
C[C@H]1CN([C@@H](C)CO)C(=O)c2cccc(NC(=O)CCCCCC(=O)Nc3ccccc3N)c2O[C@@H]1CN(C)Cc1ccncc1 | i
N#C[C@H]1[C@@H](c2ccc(C#Cc3cccc(F)c3)cc2)[C@H](CO)N1C(=O)C1CCCC1 | i
Cc1noc(C)c1S(=O)(=O)N(C)C[C@H]1Oc2ccc(NC(=O)NC3CCCCC3)cc2CC(=O)N([C@@H](C)CO)C[C@@H]1C | i
CC=Cc1ccc2n(c1=O)C[C@H]1[C@H](CO)[C@@H](C(=O)NCCC)[C@@H]2N1CC1CCOCC1 (mixture of isomers) | i
C[C@H](CO)N1C[C@H](C)[C@@H](CN(C)C(=O)c2ccccc2)Oc2cc(C3=CCCC3)ccc2S1(=O)=O | i
C[C@@H]1CN([C@@H](C)CO)C(=O)Cc2cc(NC(=O)CCCCCC(=O)Nc3ccccc3N)ccc2O[C@H]1CN(C)CC1CC1 | i
COC(=O)[C@]12C[C@H](CC(=O)N3CCN(C(=O)C4CC4)CC3)C(=O)N(Cc3ccc4c(c3)OCO4)C1=C[C@H](COCc1ccccc1)O[C@@H]2C | i
CO[C@@H]1CN(C)C(=O)c2ccc(NC(=O)NC(C)C)cc2OC[C@H](C)N(C(=O)CC2CC2)C[C@H]1C | i
O=C(Nc1ccccc1)N1CCCCN2[C@H](CO)[C@H](c3ccc(-c4ccccc4)cc3)[C@H]2C1 | i
C[C@@H]1CN([C@H](C)CO)C(=O)c2cc(C#CC3(O)CCCC3)cnc2O[C@@H]1CN(C)C(=O)C1CCCCC1 | i
Cc1ccc(S(=O)(=O)Nc2ccc3c(c2)C(=O)N([C@@H](C)CO)C[C@@H](C)[C@H](CN(C)C(=O)NC(C)C)OCCCC[C@H](C)O3)cc1 | i
CN1C(=O)c2cc(NC(=O)C3CCCC3)ccc2OC[C@H]2O[C@H](CC(=O)O)CC[C@@H]21 | i
CC(C)NC(=O)N1[C@H](C(=O)N2CCOCC2)[C@@H](CO)[C@@H]2Cn3c(ccc(-c4ccc(F)cc4)c3=O)[C@@H]21 | i
COc1ccc(NC(=O)Nc2ccc3c(c2)C(=O)N([C@H](C)CO)C[C@@H](C)[C@H](CN(C)C(=O)Nc2c(C)noc2C)O3)cc1 | i
CN(C)C(=O)c1cccc(-c2ccc([C@H]3[C@@H](CO)N4CCCCN(C(=O)C5CCCC5)C[C@@H]34)cc2)c1 | i
Cc1ccc(/C=N/NC(=O)c2c(C)nc3ccc(Cl)cn23)cc1 | i
C[C@@H]1CCCCO[C@H](CN(C)C(=O)Nc2cccc3ccccc23)[C@@H](C)CN([C@@H](C)CO)C(=O)c2cc(NC(=O)c3ccncc3)ccc2O1 | i
C[C@@H]1CN([C@@H](C)CO)C(=O)Cc2cc(NC(=O)CCC(F)(F)F)ccc2O[C@@H]1CN(C)C(=O)Nc1ccc(F)cc1 | i
C#CCNC(=O)C[C@H]1C[C@@]2(C(=O)OC)C(=C[C@H](C(C)(C)C)O[C@@H]2C)N(CCCCCCCC)C1=O | i
CN(C)C(=O)c1ccc(-c2ccc3c(c2)[C@H]2[C@H](CCN2C(=O)c2ccccn2)[C@H](CO)N3C)cc1 | i
O=C(C[C@H]1C=C[C@@H](NS(=O)(=O)c2ccccc2)[C@H](CO)O1)NCc1ccc(Cl)c(Cl)c1 | i
Cc1noc(C)c1NC(=O)Nc1ccc2c(c1)C(=O)N([C@H](C)CO)C[C@H](C)[C@H](CN(C)C(=O)NC(C)C)OCCCC[C@@H](C)O2 | i
COc1ccccc1S(=O)(=O)N[C@H]1CC[C@@H](CCNC(=O)C2CCCC2)O[C@@H]1CO | i
CN(C)CC(=O)Nc1ccc2c(c1)[C@H]1C[C@@H](CC(=O)NCCc3ccccc3)O[C@H](CO)[C@H]1O2 | i
C[C@@H]1CCCCO[C@@H](CN(C)C(=O)Nc2ccc3c(c2)OCO3)[C@@H](C)CN([C@H](C)CO)C(=O)c2cc(NC(=O)Nc3ccc4c(c3)OCO4)ccc2O1 | i
COc1cccc(NC(=O)N(C)C[C@@H]2Oc3cc(C#CC4(O)CCCC4)ccc3S(=O)(=O)N([C@H](C)CO)C[C@H]2C)c1 | i
CN1CCN(C(=O)[C@@H]2[C@@H](CO)[C@@H]3Cn4c(ccc(-c5cncnc5)c4=O)[C@@H]3N2CC2CCCC2)CC1 | i

Among those listed so far, these have an aryl methoxy group:
SMILES | FGF22 binding
COc1cccc(CNC(=O)[C@H]2CCCN2C(=O)[C@H]2CCCN2C(=O)N2CCOCC2)c1 | i
COc1ccc(S(=O)(=O)N(C)C[C@@H]2Oc3ccc(NC(=O)Cn4cnnn4)cc3CC(=O)N([C@H](C)CO)C[C@@H]2C)cc1 | i
COc1ccc(NC(=O)Nc2ccc3c(c2)C(=O)N([C@H](C)CO)C[C@@H](C)[C@H](CN(C)C(=O)Nc2c(C)noc2C)O3)cc1 | i
COc1ccccc1S(=O)(=O)N[C@H]1CC[C@@H](CCNC(=O)C2CCCC2)O[C@@H]1CO | i
COc1cccc(NC(=O)N(C)C[C@@H]2Oc3cc(C#CC4(O)CCCC4)ccc3S(=O)(=O)N([C@H](C)CO)C[C@H]2C)c1 | i

More structures.
SMILES | FGF22 binding
O=S(=O)(c1ccccc1F)N1CC[C@@H]2[C@@H](CO)Nc3ccc(-c4cccc(F)c4)cc3[C@@H]21 | i
C[C@@H]1CN([C@H](C)CO)C(=O)c2cccc(NC(=O)NC3CCCCC3)c2O[C@@H]1CN(C)S(=O)(=O)c1ccc(F)cc1 | i
CN1C(=O)c2cc(NC(=O)Nc3cccc(Cl)c3)ccc2OC[C@@H]2O[C@@H](CC(=O)O)CC[C@@H]21 | i
Cc1noc(C)c1NC(=O)Nc1ccc2c(c1)C(=O)N([C@H](C)CO)C[C@H](C)[C@H](CN(C)C(=O)Nc1ccc(C(F)(F)F)cc1)O2 | i
CCC(=O)Nc1ccc2c(c1)C(=O)N(C)[C@@H]1CC[C@@H](CC(=O)O)O[C@@H]1CO2 | i
C[C@H]1CN([C@@H](C)CO)C(=O)c2cc(C#Cc3cccc(F)c3)cnc2O[C@@H]1CN(C)C(=O)c1ccccc1F | i
O=C(C[C@@H]1CC[C@H]2NC[C@H](O)COC[C@@H]2O1)NC1Cc2ccccc2C1 | i
CS(=O)(=O)Nc1ccc2c(c1)[C@H]1C[C@@H](CC(=O)NCc3cccc(F)c3)O[C@@H](CO)[C@H]1O2 | i
COCC(=O)N1C[C@@H](C)[C@@H](OC)CN(C)C(=O)c2ccc(NC(=O)c3cc(C)on3)cc2OC[C@@H]1C | i
C[C@@H]1CCCCO[C@H](CN(C)C(=O)c2ccncc2)[C@H](C)CN([C@H](C)CO)C(=O)c2cc(NC(=O)c3ccncc3)ccc2O1 | i
Cc1noc(C)c1NC(=O)Nc1ccc2c(c1)C(=O)N([C@H](C)CO)C[C@H](C)[C@@H](CN(C)CC1CCCCC1)O2 | i
COc1ccc(S(=O)(=O)N(C)C[C@@H]2Oc3ncc(-c4ccc(F)cc4)cc3C(=O)N([C@H](C)CO)C[C@@H]2C)cc1 | i
C[C@@H]1CCCCO[C@H](CN(C)C(=O)Nc2ccccc2)[C@H](C)CN([C@@H](C)CO)C(=O)c2cc(NS(=O)(=O)c3cn(C)cn3)ccc2O1 | i
CCC(=O)Nc1ccc2c(c1)C(=O)N(C)C[C@H](OC)[C@@H](C)CN(Cc1ccncc1)[C@H](C)CO2 | i
C[C@@H]1CN([C@H](C)CO)C(=O)c2cc(C#CC3(O)CCCC3)cnc2O[C@@H]1CN(C)C(=O)Nc1ccc2c(c1)OCO2 | i
COc1cccc(S(=O)(=O)N[C@@H]2C=C[C@H](CC(=O)NC3CCC3)O[C@@H]2CO)c1 | i
COc1ccccc1-c1ccc([C@H]2[C@@H](CO)N(C(=O)c3cccc(F)c3)[C@H]2C#N)cc1 | i
COc1ccccc1S(=O)(=O)N(C)C[C@@H]1OCc2ccccc2-c2ccccc2C(=O)N([C@@H](C)CO)C[C@@H]1C | i
C/C=C/c1ccc([C@H]2[C@H]3CN(S(=O)(=O)c4cccc(C)c4)CCCCN3[C@H]2CO)cc1 | i
C[C@@H](NC(=O)C[C@@H]1CC[C@H]2[C@@H](COC[C@H](O)CN2C(=O)Nc2cccc(F)c2)O1)c1ccccc1 | i
C[C@H](CO)N1C[C@H](C)[C@@H](CN(C)C(=O)NC2CCCCC2)OCCCC[C@H](C)Oc2ccc(NC(=O)Cc3ccccc3)cc2C1=O | i
C[C@@H]1CN([C@@H](C)CO)C(=O)Cc2cc(NS(=O)(=O)c3cccs3)ccc2O[C@@H]1CN(C)C(=O)Nc1ccccc1 | i
